From PubChem
GLA inh pH 4.5 = inhibitors of human alpha-galactosidase A at pH 4.5. activity change, negative = inhibition, % at 105 µM. purified enzyme, 4-MU-alpha-Gal fluorescence, pH 4.5. 230,000 tested, under 10 active; inconclusive = small, poorly fitted or top-dose-only inhibition, or a rising curve; inactive = flat fitted curve, though single readings scatter; no compound was filed as active;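 further: 0% = full activity with enzyme and -100% = basal without enzyme; dose as in the result columns while the protocol names 77 µM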
Target sequence (P06280 whole entry, looked up): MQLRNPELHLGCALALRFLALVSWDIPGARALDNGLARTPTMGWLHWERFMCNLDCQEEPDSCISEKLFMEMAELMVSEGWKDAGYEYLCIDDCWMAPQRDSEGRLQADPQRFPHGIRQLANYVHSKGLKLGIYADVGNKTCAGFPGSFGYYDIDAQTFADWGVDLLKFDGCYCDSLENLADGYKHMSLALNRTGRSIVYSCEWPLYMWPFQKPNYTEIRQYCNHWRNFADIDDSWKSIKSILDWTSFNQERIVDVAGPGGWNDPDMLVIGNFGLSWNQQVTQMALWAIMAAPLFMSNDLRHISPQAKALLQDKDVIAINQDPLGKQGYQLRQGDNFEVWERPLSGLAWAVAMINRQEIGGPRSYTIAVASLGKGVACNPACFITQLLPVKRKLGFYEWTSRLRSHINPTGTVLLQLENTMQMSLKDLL
Rango release inh = inhibitors of RanGTP-induced Rango-importin beta complex dissociation | O95149+P62826 | Biochemical FRET Rango-importin beta, RanGTP-induced dissociation | Potency, µM (highest dose often 46.1 µM), inactives show at the highest dose activity change, negative = inhibition | 0.071% of 340,000 active | AID 540253; active means falling FRET ratio curve, often poorly fitted, with flat reads before Ran was added; inconclusive means other falling curves, or compound fluorescence or quenching; inactive means flat or rising ratio curve;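 further: potency means the concentration at half of the fitted maximal effect; % of control where 0% means no effect; nearly all actives have a fitted effect of over 45% in size; -100% = wells without RanGTP and RCC1; the record marks most hits as doubtful in a second field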
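Compounds sat 5 min at room temperature with 0.1 uM Rango biosensor plus 0.25 uM importin beta, then FRET pre-read. RanGTP-RCC1 (0.6 uM Ran, 2mM GTP, 0.2 uM RCC1) added for 45 min, and the CFP/YFP post-read measured blocked complex dissociation.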
Rango complex inh = Rango-importin beta binding inhibition; Potency, µM (top dose mostly 92.2 µM), inactives show top-dose inhibition of complex formation; Q14974; Rango CFP/YFP FRET sensor + importin beta, 45 min; AID 540263; 0.031% of 340,000 active; active = rising FRET ratio curve, often small or poorly fitted; inconclusive = mostly compound fluorescence or quenching in the first reads; inactive = flat curves in all reads;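 further: potency means the concentration at half of the fitted maximal effect; 0% = DMSO wells and 100% = buffer wells lacking importin beta; nearly all actives have a fitted effect of over 15% in size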
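Inhibition scored from the CFP 486 nm/YFP 530 nm FRET ratio 45 min after adding 0.125 microM importin beta to 50 nM Rango biosensor preincubated 5 min with compound (room temperature, PBS with DTT, Tween-20, BSA). No-importin wells as positive control.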
miR-21 reporter = miR-21 reporter, rising signal | HeLa miR-21 FLuc reporter, luciferase, 48 h | Potency, µM (doses to about 38.3 µM), inactives show at the highest dose reporter change, positive = more light | 340,000 tested, under 10 active; active = well fitted rising curve with a large enough effect; inconclusive = small, poorly fitted or top-dose-only effect; inactive = no such curve, though single readings can be large or run the other way;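 further: % of control where 0% means no effect; miR-21 action dims this reporter so a rising signal means less miR-21 action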
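HeLa miR-21-FLuc reporter line, endogenous miR-21; 2000 cells/well in DMEM/10% FBS; compound titration up to ~40uM final, 48 h, 37 degree Celsius; luciferase detection reagent, 15 min lysis, CCD luminescence.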
The depositor's hits bear a star; ? = inconclusive; · = no result given; & = joins results of further samples.

SMILES | GLA inh pH 4.5 | Rango release inh | Rango complex inh | miR-21 reporter
Cc1ccc2c(c1)S(=O)(=O)c1ccc3ccccc3c1N2 | · | 1.0% | -2.0% | ·
CCOC(=O)c1ccc(NC(=S)N2CCN(C(=O)C3CCCO3)CC2)cc1 (centres undefined) | · | 16.8% | -4.9% | -3.7%
COc1ccccc1CNCC(=O)Nc1ccc(C(F)(F)F)cc1 | -2.4 | -0.1% | 0.1% | -3.4%
CCOC(=O)C1CCCN(C(=O)C2CCN(S(=O)(=O)c3cccs3)CC2)C1 (centres undefined) | -2.0 | -18.6% | -1.1% | -1.2%
COc1ccccc1-c1cn[nH]c1-c1ccc(OCc2ccccc2)cc1O | -8.5 | 14.6% | 3.5% | 3.8%
O=C(c1ccc(F)c(S(=O)(=O)N2CCOCC2)c1)N(c1ccccc1)c1ccccn1 | -0.1 | -1.6% | -1.6% | -1.1%
CC(C)NS(=O)(=O)c1ccc(CCC(=O)N2CCC(C(N)=O)CC2)cc1 | -6.1 | -12.5% | -1.0% | 26.1%
Cc1cccc(NC(=S)N2CCN(c3ccc(F)cc3)CC2)c1 | 7.1 | -25.0% | -1.8% | -6.7%
CCOC(=O)c1c(NC(=O)CSc2nc3ccccc3c(=O)n2-c2ccccc2)sc(C(C)=O)c1C | 3.2 | 11.3% | 6.6% | -0.9%
Cc1cc(C(=O)Nc2ccc(S(=O)(=O)Nc3onc(C)c3C)cc2)cs1 | 4.5 | 10.0% | -0.3% | 3.1%
C=CCOC(=O)C1=C[C@@H](c2ccc(Br)cc2)C[C@@H](OCc2ccc(CO)cc2)O1 | -7.9 | -11.7% | 2.7% | -0.1%
CCOC(=O)C1=C(COc2ccc(F)cc2Cl)NC(=O)NC1c1cc(C)ccc1C (centres undefined) | 7.2 | 3.1% | 3.0% | -7.4%
CCn1c(SCC(=O)NCc2cccs2)nnc1-c1ccco1 | 5.2 | -3.3% | 2.0% | -3.2%
CCN(CC)C(=O)CSc1nc(O)c(Cc2ccccc2)c(=O)n1-c1ccccc1C | 1.5 | -4.8% | 0.9% | -1.0%
COC(=O)/C=C/CC(C)OS(N)(=O)=O (centres undefined) | · | 3.2% | 3.2% | -3.1%
Cc1ccc(NC(=O)c2ccc(Cl)c(NC(=O)c3cccs3)c2)cc1 | · | -0.3% | -2.4% | -28.7%
COc1ccc(CCN2C(=O)C3C4CC(C5C(C(=O)N/N=C\c6ccc(Cl)cc6)=NOC45)C3C2=O)cc1OC (centres undefined) | 8.5 | -10.3% | 0.3% | -1.7%
CC1CN=C(N(Cc2ccccc2)C(=O)Nc2ccccc2)S1 (centres undefined) | 4.0 | 12.4% | -4.7% | -26.3%
COc1ccccc1NS(=O)(=O)c1cccc(C(=O)NNC(=O)c2ccc(=O)[nH]c2)c1 | · | -5.4% | -1.3% | ·
COc1ccc(C2(C)CC(=O)NC2=O)cc1 (centres undefined) | · | -9.9% | 3.3% | -5.6%
Cc1ccnc(NC(=O)Cn2cc([N+](=O)[O-])cn2)c1 | 4.4 | 0.7% | -0.1% | -49.2%
O=C(CN(C(=O)CCC(=O)Nc1nccs1)c1ccc(F)cc1)NCc1ccco1 | 1.1 | 5.4% | 0.7% | -0.1%
CC(=O)Nc1ccc(OCC(=O)NC(C)c2ccc(F)cc2)cc1 (centres undefined) | 0.8 | -1.2% | 0.9% | -2.2%
COCCN(Cc1ccccc1)C(=O)c1cccc(S(=O)(=O)N(C)c2c(C)n(C)n(-c3ccccc3)c2=O)c1 | · | -3.3% | -2.0% | ·
O=C(Nc1ccc(-c2csnn2)cc1)C1CC1 | -4.1 | -5.8% | 1.9% | -24.7%
O=C(C1CC1)N1CCN(S(=O)(=O)c2ccc3c(c2)OCCO3)CC1 | 2.1 | 5.8% | -2.4% | -4.6%
CCOC(=O)[C@@H]1[C@H]2COc3ccccc3[C@H]2N2C(=O)N(c3ccccc3)C(=O)[C@]12C | · | 26.5% | -2.5% | -5.3%
O=C(O)c1ccc(S(=O)(=O)c2ccc3c(c2)C(=O)N(NC(=O)c2cccnc2)C3=O)cc1 | 3.7 | -12.1% | 0.5% | -6.9%
CC1(C)CC1C(=O)Nc1ccc([N+](=O)[O-])cc1Br (centres undefined) | -21.8 | -5.2% | 1.3% | -11.9%
O=C(Nc1ccccc1N1CCOCC1)c1cnccn1 | -2.4 | -17.3% | ? | -5.8%

Profiles, quoted from the list.
COc1ccccc1CNCC(=O)Nc1ccc(C(F)(F)F)cc1 is entered as GLA inh pH 4.5 = -2.4; Rango release inh = -0.1%; Rango complex inh = 0.1%; miR-21 reporter = -3.4%
COC(=O)/C=C/CC(C)OS(N)(=O)=O (centres undefined) is entered as GLA inh pH 4.5 = ·; Rango release inh = 3.2%; Rango complex inh = 3.2%; miR-21 reporter = -3.1%

The results go on.
SMILES | GLA inh pH 4.5 | Rango release inh | Rango complex inh | miR-21 reporter
COc1ccc2c(=O)c(-c3ccc(C)cc3)c(-c3ccccc3)oc2c1 | · | 9.6% | -0.5% | ·
O=C(CCl)NC(Cc1ccccc1)c1ccccc1 (centres undefined) | 1.2 | 4.8% | ? | ?
COc1ccc(NC(=O)C2CCN(C(=O)Nc3ccc(C)cc3)CC2)cc1OC | · | 28.7% | 2.1% | 2.9%
O=C(Nc1ccc(F)cc1F)c1ccc(-n2cccn2)nc1 | 6.9 | 2.7% | ? | -15.5%
CC(=O)NC(=S)Nc1ccc(S(=O)(=O)N2CCOCC2)cc1 | 2.6 | ? | -1.7% | -1.1%
COc1ccc(-c2cc3cc4c(cc3cn2)OCO4)cc1 | · | 4.0% | 2.0% | ·
CCOC(=O)c1c(C)nc2cc(C)cc(C)n12 | 5.6 | -9.6% | 0.9% | -30.0%
Cc1ccc(SCc2cc(-c3ccc(Cl)cc3)no2)cc1 | -30.0 | 0.6% | -0.1% | 2.6%
COC(=O)CN1C(=O)[C@H]2[C@@H](c3ccc(C)o3)N3C(=O)CN(Cc4ccccc4)C(=O)[C@@]3(C)[C@H]2C1=O | · | 3.6% | 2.1% | 2.9%
Cc1cccc(NC(=O)N2CCC(n3nnc4cc(C)ccc43)CC2)c1 | 0.5 | -6.9% | 0.2% | 2.9%
O=C(CCNC(=O)c1ccco1)Nc1ccc(SC(F)F)cc1 | -14.9 | -10.8% | -1.3% | -2.6%
O=C(Nc1nnc(-c2ccc(Cl)cc2)o1)Nc1ccccc1Cl | 2.9 | -6.2% | 0.7% | -8.1%
COc1ccc2c(c1OC)C(=O)N(c1cccc(C(F)(F)F)c1)C2 | -1.9 | -7.3% | 3.6% | -57.3%
COC(CNC(=S)Nc1ccc([N+](=O)[O-])cc1)OC | -5.6 | 28.7% | -0.8% | -23.5%
COc1cccc2c(=O)c3ccoc3n(C)c12 | 0.6&7.4 | -2.8% | 0.1% | -4.6%
Cn1cccc1C(=O)NNC(=O)COc1ccc(C#N)cc1 | · | 7.9% | -1.0% | ·
Cc1ccccc1Cn1c(-c2cncs2)nc2ccccc21 | -14.4 | -0.5% | 4.1% | -13.5%
CN1CCN(c2ccccc2NC(=O)c2ccc(Br)o2)CC1 | -6.2 | -2.5% | -4.6% | -13.0%
Cc1cc(=O)oc2cc(OCC#N)ccc12 | 18.1 | 18.1% | -0.5% | -8.4%
N#CC(OC(=O)c1ccccc1)c1cccc([N+](=O)[O-])c1 (centres undefined) | · | -1.0% | 7.8% | ·
CN(CC(=O)Nc1ccc(Cl)c(C(F)(F)F)c1)C(=O)CCNC(=O)c1ccco1 | · | -6.8% | 1.9% | ·
CN1C(=O)c2ccccc2Sc2ccc(NC(=O)N3CCOCC3)cc21 | 6.8 | 2.1% | 1.8% | -1.8%
COC(=O)c1cc(S(=O)(=O)NCCc2ccc(C)cc2)c[nH]1 | · | -2.4% | -0.5% | 8.6%
COCCCN(C(C)=O)c1nc(-c2ccccc2)cs1 | 6.2 | -2.0% | -4.8% | -65.0%
CC(=O)Nc1ccc(S(=O)(=O)Nc2cccc(S(=O)(=O)N(C)c3ccccc3)c2)cc1 | · | 22.6% | -0.1% | ·
O=C(CNC(=O)c1ccco1)NC1CCCCCC1 | · | -4.1% | 0.5% | ·
COc1ccc(C2=CC(=O)C[C@H](c3ccc(F)cc3)C2)c(F)c1F | · | -19.2% | -2.7% | ·
CN(C(=O)c1ccc(N2CCCCC2)c([N+](=O)[O-])c1)C1(C)CCS(=O)(=O)C1 (centres undefined) | · | 14.5% | ? | -4.2%
Cc1cc2c(cc1C)NC(c1nc3ccccc3[nH]1)C1=C(CC(C)(C)CC1=O)N2 (centres undefined) | 5.7 | -13.1% | 1.0% | -12.4%
O=C(COc1ncnc2c1cnn2-c1ccccc1)Nc1ccc(S(=O)(=O)N2CCCCC2)cc1 | -11.4 | 24.8% | -1.2% | 17.9%
COc1ccc(-n2c(CNC(=O)c3cccs3)n[nH]c2=S)cc1 | -7.5 | -1.9% | -3.9% | 1.0%
O=C1c2cccnc2C(Nc2ccc(Br)cc2)N1Cc1cccs1 (centres undefined) | -1.2 | -12.9% | 0.4% | 9.5%
Cc1ccc(OCCCCn2ccnc2)c(Cl)c1 | 1.7 | -7.0% | 0.0% | -28.5%
O=C(Nc1ccc(Cl)cc1Cl)c1n[nH]c(Cn2cncn2)n1 | -1.3 | 2.6% | 6.3% | -14.8%
C/C(CC(=O)Nc1ccc(Br)cc1)=N\NC(=O)Cc1csc(N)n1 | 6.8 | 0.3% | -0.1% | -0.5%
Cc1ccc(/C=C/C(=O)N2CCN(c3cccc(C(F)(F)F)c3)CC2)cc1 | -6.5 | -13.2% | 1.2% | -2.4%
O=[N+]([O-])c1nn(-c2ccc3c(c2)OCCO3)n(O)c1=NCCCO | -9.9 | -5.5% | -1.4% | -51.6%
Cc1nc2ccccc2n1CCc1nc2c3ccccc3nc(SCC(=O)NCc3ccco3)n2n1 | -3.0 | -1.8% | -2.6% | -0.1%
Cc1cccc(C)c1NC(=O)CSc1nnc(C)n1-c1ccccc1 | 0.5 | 13.7% | -0.5% | -3.1%
CCOC(=O)CC(=O)CSCC(=O)Nc1ccc(C)cc1 | -1.4 | -17.8% | 4.1% | -7.6%
Cc1nn(-c2ccccc2)c(C)c1C(=O)OCC(=O)N1CC(=O)Nc2ccccc21 | -3.3 | -10.4% | 1.0% | -16.8%
CC1C(=O)Nc2ccccc2N1C(=O)c1ccccc1 (centres undefined) | -10.4 | 0.8% | -1.6% | -0.7%
COc1cc(/C=N/NC(=O)c2cccs2)ccc1OCc1ccccc1 | -25.8 | -9.7% | -0.8% | -25.9%
O=C(O)c1ccc(N2C(=O)/C(=C/c3ccc(-c4ccc([N+](=O)[O-])cc4)o3)C=C2c2ccccc2)cc1 | -9.0 | -25.6% | ? | -8.6%
Cc1nnc(-c2ccc(Oc3ccc(C)c(C)c3)c([N+](=O)[O-])c2)o1 | -5.5 | -4.9% | 3.8% | 4.6%
C=CCOc1cccc(C2C(C(=O)c3ccco3)=C(O)C(=O)N2Cc2ccncc2)c1 (centres undefined) | -6.7 | -1.4% | -2.0% | -10.7%
Cc1ccc(-n2c(SCC(=O)NCC3CCCO3)nc3c(c2=O)SCC3)cc1 (centres undefined) | -5.2 | -1.6% | -2.7% | -11.9%
CN(Cc1ccccc1)C(=O)CSc1nc2ccccc2[nH]1 | · | 4.1% | 0.4% | -54.0%
COc1cc(Cl)ccc1OCc1cc(C(=O)N2CCCCCC2)no1 | · | 12.1% | 2.2% | -27.2%
C/C(CC(=O)Nc1ccc2c(c1)OCO2)=N\NC(=O)C(c1ccccc1)c1ccccc1 | -2.0 | 0.1% | 1.5% | -4.0%
COc1ccc(-c2cc(C(=O)N3CCN(c4ccccc4O)CC3)c3ccccc3n2)cc1 | · | -0.6% | -1.1% | ·
Cc1cccc(-c2cc3nc4c(c(N5CCOCC5)n3n2)CCCC4)c1 | -7.4 | 5.1% | -4.9% | -53.3%
Cc1nc(Nc2ccccc2C)c2cnn(C)c2n1 | · | 7.0% | 0.8% | ·
COc1ccccc1-c1cc(C(=O)NCc2ccccc2)no1 | -4.8 | 24.9% | 4.4% | -32.0%
CCc1noc(C)c1C(=O)Nc1ccc(-c2nnc3n2CCCCC3)cc1 | · | -12.5% | -0.9% | ·
C[C@]12C(=O)N(c3ccccc3)C(=O)N1[C@H]1c3ccccc3OC[C@@H]1[C@H]2c1ccccc1 | · | 5.6% | -2.8% | ·

This is a subset; the hit share may differ from the screen's.
